YopH PTP inh: YopH (Yersinia) phosphatase inhibition; fluorescence Ex485/Em525; inhibition, %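 (about 10 µM by stock and volumes)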; actives 0.16% (n = 140,000); AID 898;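 active means inhibition of 50% or more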;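 further: controls were vehicle for no effect and minimum signal wells for full effect; inactives centre near -20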
Mtb bLac sens: beta-lactam sensitization of Mtb H37Rv; M. tuberculosis H37Rv growth with meropenem, percent inhibition; hits of this screen are not shown here; inhibition, % at 25 µM; actives 0.27% (n = 330,000); AID 434955;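 active means about 74% or more and at least 40 points above the plate without the antibiotic, then above 30% in a dose series; inconclusive means first-round hits that could not be retested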;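 further: growth measured after seven days incubation then overnight dye step; 0% = bacteria only wells and 100% = bacteria with antibiotic; twin plates without the antibiotic show which effects depend on it; some results filed as inactive read as strong as hits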
RecA splice inh: blocks M. tuberculosis RecA intein splicing; actives 0.75% (n = 290,000); cell-free RecA intein splicing, fluorescence; AID 2221; inhibition, %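 (about 9 µM by stock and volumes)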; in the data active means inhibition above about 30%; inconclusive means no clear call, values can overlap the other calls;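 further: 0% = vehicle wells and 100% = reference inhibitor control wells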
Target sequence (P9WHJ3 whole entry, looked up, canonical isoform): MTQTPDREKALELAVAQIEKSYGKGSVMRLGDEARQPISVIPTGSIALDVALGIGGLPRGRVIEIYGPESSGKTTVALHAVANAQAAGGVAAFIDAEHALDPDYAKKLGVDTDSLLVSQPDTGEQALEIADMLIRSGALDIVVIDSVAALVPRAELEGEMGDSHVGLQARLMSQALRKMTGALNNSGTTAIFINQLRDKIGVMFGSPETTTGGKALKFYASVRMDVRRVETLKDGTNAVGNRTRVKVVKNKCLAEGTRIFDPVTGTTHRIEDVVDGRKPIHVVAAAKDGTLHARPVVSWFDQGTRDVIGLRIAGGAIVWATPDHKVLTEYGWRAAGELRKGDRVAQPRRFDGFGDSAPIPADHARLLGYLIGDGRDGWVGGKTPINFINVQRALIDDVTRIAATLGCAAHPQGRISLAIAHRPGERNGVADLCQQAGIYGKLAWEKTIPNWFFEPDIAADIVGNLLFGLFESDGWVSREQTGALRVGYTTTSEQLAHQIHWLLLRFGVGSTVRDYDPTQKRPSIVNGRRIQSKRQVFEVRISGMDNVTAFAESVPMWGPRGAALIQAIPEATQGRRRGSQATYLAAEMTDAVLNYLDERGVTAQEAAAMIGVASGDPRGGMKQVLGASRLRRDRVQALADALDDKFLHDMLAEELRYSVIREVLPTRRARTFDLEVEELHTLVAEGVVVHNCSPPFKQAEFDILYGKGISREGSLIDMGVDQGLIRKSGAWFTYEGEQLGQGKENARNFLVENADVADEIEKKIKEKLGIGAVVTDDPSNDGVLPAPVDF
Arbovirus inh: antivirals against arbovirus infection | arbovirus infection cell-based antiviral screen | actives 0.37% (n = 200,000) | inhibition, % at 10 µM;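 active means inhibition from about 30%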;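 further: bluetongue infection of BSR cells; cell survival read as ATP light after 72 h; 0% = infected wells without compound and 100% = uninfected wells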
Mtb H37Rv: M. tuberculosis H37Rv growth inhibitors, H37Rv strain (AID 1626); M. tuberculosis H37Rv growth inhibition; higher % means a stronger effect; inhibition, % at 10 µM, or IC50 in µM where a hit was titrated; actives 0.95% (n = 220,000);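 active means confirmed in a dose series; inconclusive means inhibition above 80% but not taken into the dose series; inactive means below 80% or under 30% at every dose of the series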;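 further: bacteria incubated seven days before Alamar blue readout; 0% = bacteria only wells and 100% = bacteria with antibiotic wells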
Arbovirus inh repeat: recorded beside Arbovirus inh, whose call it bears; inhibition, %; measured here: 10K subset replicate screen; many hits read low in the repeat;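 first of two repeat runs on a subset; 0% = infected and 100% = uninfected wells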
* marks the source's active call; other numbers are inactive results; ? = inconclusive; / = not tested or not shown.

SMILES	YopH PTP inh	Mtb bLac sens	RecA splice inh	Arbovirus inh	Mtb H37Rv	others
NC(=O)[C@@H]1CC2(CC(c3cccc(NC(=O)[C@@H]4CCC(=O)N4)c3)=NO2)CN1C(=O)Cc1ccc([N+](=O)[O-])cc1 (some centres undefined)	/	-12	-0.9	/	5%
Cc1nc2cc(N=NC3=C(O)CCCC3=O)ccc2s1	-22	-1	/	-17	-1%
CCc1nnc(SCC(=O)Nc2ccc(F)cc2)o1	/	2	23	/	/
CC(Sc1nc(NC(C)(C)C)nc(N(C)C)n1)C(=O)Nc1ccccc1 (centres undefined)	/	-4	-1.1	10	/
COc1ccc2cc(-c3[nH]ncc3CN3C[C@@H]4CCC[C@H]3C4)ccc2c1	/	-6	2.6	-6	-6%
O=C(c1ccccc1)N1CCN(C2CC3CCC2C3)CC1 (centres undefined)	-38	-10	/	7	-6%
C/C(Nc1cccc(F)c1)=C(/C#N)C(N)=O	12	11	-0.8	0	3%
O=C(COC(=O)CCCOc1ccc(Cl)cc1Cl)Nc1cccc(Cl)c1	-31	-3	13	2	6%
C#CC(CC)(CC)NC(=O)c1ccc(Br)s1	/	-1	-1.2	0	7%
Cc1nc(CS(=O)(=O)c2ccccc2)cc(N2CCOCC2)n1	-45	-10	0.0	2	2%
O=C(Cn1cnc2ccccc21)NCCCN1CCOCC1	-19	-12	1.0	6	-6%
NNC(=O)c1nc[nH]c1C(=O)Nc1ccccc1	/	8	1.1	/	/
CCN(CC)c1ccc(C(=O)N/N=C(\C)c2cccnc2)cc1	/	1	-4.5	-1	7%
O=C(/C=C/C=C/c1ccccc1)CC1(O)C(=O)Nc2ccccc21 (centres undefined)	/	-7	6.0	1	-5%
COc1cc(OC)nc(Oc2ccc(N)c(C)c2)n1	/	-4	1.5	/	/
CC(C)(C)OC(=O)N1CCC2(CC1)Oc1ccc(Cl)cc1C(=O)C21CC(c2ccc(Cl)cc2)=NO1 (centres undefined)	/	-2	0.0	/	-4%
CCCNS(=O)(=O)c1ccc(OCC(=O)Nc2ccc3c(c2)OCCO3)cc1	-33	1	1.0	-2	-1%
CCC(CC)NC(=O)COn1nnc2ccc(S(=O)(=O)N3CCOCC3)cc21	/	-2	-4.7	/	/
O=C(CCc1nnc(-c2ccc(-c3ccccc3)cc2)o1)NCCc1ccccn1	/	12	-0.2	-4	-9%
CCn1cc(C(=O)N2CCn3c(nc4ccccc43)C2)c(=O)c2ccc(C)nc21	-51	-1	-0.6	7	?	Arbovirus inh repeat=2
Cc1[nH]n(-c2ccccc2)c(=O)c1C=NC1CCCCCC1	/	-6	1.5	-8	-19%
O=C(CN1CCN(c2ccccn2)CC1)Nc1ccc2ccccc2c1	-50	47	7.9	4	47%
CC(C)NC(=O)c1ccc2c(=O)n(CC3CCCO3)c(=S)[nH]c2c1 (centres undefined)	/	8	-0.1	3	-1%
COc1cccc(CN(C)C(=O)CC23CC4CC(CC(C4)C2)C3)c1OC	/	4	9.4	/	/
COC(=O)CNC(=O)C1CCN(S(=O)(=O)c2cccc3nsnc23)CC1	/	0	-2.1	/	/

The listing continues.
SMILES	YopH PTP inh	Mtb bLac sens	RecA splice inh	Arbovirus inh	Mtb H37Rv	others
CC(=O)Nc1ccc(N2CCOCC2)c(C(=O)Nc2cccc(C)c2)c1	-42	-13	0.1	-1	2%
O=C1c2ccccc2C(=O)C12OC(c1ccccc1)C1(C(=O)c3ccccc3C1=O)C2c1cccc([N+](=O)[O-])c1 (centres undefined)	-14	/	-2.4	6	12%
O=C1N2CCSC2=NC1(Nc1ccccn1)C(F)(F)F (centres undefined)	-30	-3	8.7	-3	-1%
CC(C)CC(=O)Nc1ncnc2c1C(=O)CC(C)(C)C2	4	8	-0.7	2	0%
NC1=NC(c2cn(-c3ccccc3)nc2-c2cccs2)n2c(nc3ccccc32)N1 (centres undefined)	-35	1	-0.4	4	/
O=C(Nc1cccc(Cl)c1)OCc1cncs1	4	9	-3.8	4	8%
O=C(O)C1C2C=CC(O2)C1C(=O)NC1CCCc2ccccc21 (centres undefined)	-63	0	-2.9	3	4%
O=C(CSc1nnc(-c2ccco2)o1)c1ccccc1Cl	/	67	3.3	-6	>100µM*
CCOc1ccc(N(CC(=O)NCCc2ccccc2)C(=O)c2csnn2)cc1	/	-12	1.4	/	/
N#CC12C(N)=NC3(OCCO3)C1(C#N)C1=C(CCC1)NC2c1ccccc1 (centres undefined)	-11	-1	-1.5	0	-9%
CCSc1nnc2ccc(-c3ccco3)nn12	/	-1	-15	2	6%
C[n+]1ccn(CC(=O)c2cccs2)c1	/	-1	0.5	/	/
COC(=O)/C=C/c1cc(F)ccc1S(=O)(=O)NC(C)(C)C	/	1	2.9	/	-4%
CCN(CC)CCNC(=S)Nc1ccc2nc(N3CCN(CC)CC3)cc(C)c2c1	/	0	-4.1	/	/
COC(=O)Nc1nnc(-c2ccccc2OC)s1	/	5	1.5	/	-5%
Cc1ccc(-c2csc3nc(SCC(=O)N(C)C)n(Cc4ccccc4)c(=O)c23)cc1	-16	3	-0.6	15	6%
CN(Cc1cc2ccccc2[nH]c1=O)S(C)(=O)=O	-47	-6	-1.0	-2	-6%
CCN1CCN(S(=O)(=O)c2cc(C)c(OC)cc2C)CC1	-40	-5	-1.4	-7	-7%
CCOC(=O)C1(Cc2cccc(OC)c2)CCN(Cc2cccc3cnccc23)CC1	/	5	-2.4	20	27%
C=CCc1c(Cl)nc(C)nc1NCc1ccccc1	/	-3	-0.2	/	/
CC(/C=C/c1ccco1)=N/NC(=O)OC(C)(C)C	-4	6	/	-1	-1%
CC(=O)c1cccc(OCC(O)CNCC2CCCCC2)c1 (centres undefined)	/	-4	-2.4	/	/
N#Cc1ccc(C23CC4(C2)[C@H](CN(Cc2ccc(-c5ccccc5)cc2)[C@@H]4c2ccccc2)C3c2ccccc2)cc1 (some centres undefined)	/	-6	2.2	/	3%
COc1ccc(S(=O)(=O)Nc2ccccc2-c2nnn(CC(=O)Nc3ccccc3OC)n2)cc1	-23	-3	4.3	-3	0%
CCOCCCNC(=S)N1CCN(c2nc(-c3ccc(F)cc3)cs2)CC1	/	37	5.7	/	/

The list continues:
SMILES	YopH PTP inh	Mtb bLac sens	RecA splice inh	Arbovirus inh	Mtb H37Rv	others
CC(C)c1ccc(-n2cccc2/C=C2/C(=N)N3C=CSC3=NC2=O)cc1	-9	90	0.6	-12	12µM*
Cc1ccc(-c2noc(CN3CCN(C(c4ccccc4)c4ccccc4)CC3)n2)cc1	-24	-3	6.9	8	-12%
CC(=O)Nc1ccc(S(=O)(=O)NCC2CCC(C(=O)N3CCCCCC3)CC2)cc1 (centres undefined)	9	-7	2.3	-2	-7%
CC(C)C(OC(=O)c1cccs1)C(=O)NCCc1ccccc1 (centres undefined)	/	3	1.2	/	/
COc1cccc(NC(=O)NC2CC(=O)N(c3ccc4c(c3)OCCO4)C2)c1 (centres undefined)	/	0	-2.1	/	/
O/N=C1/CCc2cccc3cccc1c23	-38	7	5.9	8	3%	Arbovirus inh repeat=2
Cc1ccc(OCCSCc2nnc(NC(=O)Nc3cccc(Cl)c3)s2)cc1	-29	6	-1.1	38*	14%
CC1CCN(C(=O)COC(=O)c2cc(Cl)cc(Cl)c2N)CC1	12	7	-1.0	-5	-13%
C/C(=N\NS(=O)(=O)c1ccc(Cl)cc1)c1ccc(O)cc1	-4	16	/	-9	-2%
O=C(NNC(=O)c1ccc2[nH]c(=O)c(=O)[nH]c2c1)c1cccc(Br)c1	/	-1	1.2	/	/
CCOc1ccc2nc(NC(=O)c3cnccn3)sc2c1	-54	/	0.6	-21	/
COc1ccc(CCNC(=O)c2ccc(NS(=O)(=O)c3ccc4[nH]c(=O)[nH]c4c3)cc2)cc1	/	-2	-0.9	/	/
Cc1cc(O)c(CN2CC=C(c3ccccc3)CC2)cc1C(C)C	/	8	16	/	/
Cc1cccc(-c2nc(CS(=O)CC(=O)N3CCCCC3)c(C)o2)c1 (centres undefined)	/	1	-5.5	12	4%	Arbovirus inh repeat=-1
COc1ccc(N2C(=O)CCC2(C(N)=O)c2ccccc2)cc1 (centres undefined)	/	-10	0.9	4	-1%
CCN(CC)c1cccc(OC2=NS(=O)(=O)c3ccccc32)c1	-32	-2	-1.8	-1	-5%	Arbovirus inh repeat=2
O=C(NCc1cccs1)C1CC(c2ccc(F)cc2)=NO1 (centres undefined)	/	7	/	1	-8%
Cc1ccc(CCNC(=O)CCS(=O)(=O)c2ccc3nc(C)sc3c2)cc1	/	-2	2.3	/	/
COc1ccc(NC(=O)CCCN2C(=O)CCC2=O)cc1Cl	-4	91	-11	5	77%
Cc1sc(NC(=O)COc2cccc(-n3cnnn3)c2)c(C#N)c1C	-10	-16	-0.1	-13	-5%
O=C(c1ccc(F)cc1)N1CCCC(c2ccccc2)C1 (centres undefined)	/	2	0.1	19	2%
COc1ccc(OC)c(N(C(=O)c2snc(C(N)=O)c2N)C(C(=O)NCc2ccccc2)c2ccc(O)cc2)c1 (centres undefined)	/	1	-2.9	/	/
CCc1nc(SCC(=O)Nc2ccccc2OC)c2c(C)c(C)sc2n1	/	-1	12	/	/
COC(=O)c1cc(S(=O)(=O)C(C)C)c(S(C)=O)s1 (centres undefined)	/	-8	7.0	/	-14%
O=C1c2ccccc2S(=O)(=O)c2cc(C(=O)N3CCN(c4ncccn4)CC3)ccc21	/	-4	-1.9	/	-2%

The list goes on, overlapping the part above by two compounds.
SMILES	YopH PTP inh	Mtb bLac sens	RecA splice inh	Arbovirus inh	Mtb H37Rv	others
COC(=O)c1cc(S(=O)(=O)C(C)C)c(S(C)=O)s1 (centres undefined)	/	-8	7.0	/	-14%
O=C1c2ccccc2S(=O)(=O)c2cc(C(=O)N3CCN(c4ncccn4)CC3)ccc21	/	-4	-1.9	/	-2%
COCC(C)NC(=O)c1oc2c(c1C)C1(CCC2)SCCS1 (centres undefined)	-17	-5	-6.6	4	6%
CC(C)Sc1ccc(C(=O)Nc2ccc(F)cc2F)cn1	/	3	-0.8	-3	2%
Cc1cc(N2CCOCC2)c2c(N)c(Br)cc(C)c2n1	-24	14	5.1	11	0%	Arbovirus inh repeat=12
Cn1c(=O)cc(C(=O)N/N=C/c2ccc(F)cc2)[nH]c1=O	/	-3	18	/	-1%
Cc1cccc(OCc2cc(-c3ccccc3)no2)c1C	/	-2	5.5	/	/
CCOC(=O)CC1(C)NC(=O)c2c(C)sc(C(=O)OCC)c2N1 (centres undefined)	-30	-2	-4.8	-2	/
CCc1ccc(S(=O)(=O)NCc2cn3cccc(C)c3n2)s1	-29	3	1.2	7	-3%
COC(=O)c1ccc(NC(=O)COc2cccc3c2OC(C)(C)C3)cc1	/	0	3.7	/	/
O=C(Cc1ccccc1[N+](=O)[O-])N1CCN(c2ccccc2F)CC1	-17	-1	-0.3	1	2%
CCC(=O)N1CCc2cc(S(=O)(=O)NCCc3ccc(S(N)(=O)=O)cc3)ccc21	/	-7	-0.5	/	/
O=C(CSc1nnc(-c2ccco2)o1)NCC(=O)c1ccccc1	1	-2	0.3	1	-11%
O=[N+]([O-])c1ccc(Oc2ccc(S(=O)(=O)N3CCCCC3)cc2)cc1	-39	1	2.1	2	8%
CN(C)CCN(CC1CCCN(Cc2ccccc2F)C1)C(=O)Cc1ccc(F)c(F)c1 (centres undefined)	/	-5	-0.4	/	/
CCOC(=O)C1=C(c2ccccc2)OC(N)=C(C#N)C1c1cccnc1 (centres undefined)	/	-6	-1.5	11	-4%
Cc1ccc(S(=O)(=O)Nc2cc3c4c(c2)CC(=O)N4CCC3)cc1	/	-2	11	/	/
CSCCC(NC(=O)c1ccc(Cl)cc1Cl)C(=O)NCc1ccncc1 (centres undefined)	/	-3	-1.3	/	/
O=C1C=CN(Cc2ccccc2)CC1	/	-3	-5.0	/	-4%
N#Cc1nc(-c2ccc(OCc3ccc(Cl)cc3)cc2)oc1NCCCn1ccnc1	-18	-9	1.5	-2	-1%
Cc1ccc(-c2oc3ccccc3c(=O)c2O)cc1	-14	63	-6.5	2	?	Arbovirus inh repeat=0

Structures above that contain bromine:
SMILES	YopH PTP inh	Mtb bLac sens	RecA splice inh	Arbovirus inh	Mtb H37Rv	others
C#CC(CC)(CC)NC(=O)c1ccc(Br)s1	/	-1	-1.2	0	7%
O=C(NNC(=O)c1ccc2[nH]c(=O)c(=O)[nH]c2c1)c1cccc(Br)c1	/	-1	1.2	/	/
Cc1cc(N2CCOCC2)c2c(N)c(Br)cc(C)c2n1	-24	14	5.1	11	0%	Arbovirus inh repeat=12

An excerpt (hit frequency here may not be typical).
